Bioassay records: PubChem, several laboratories
Mtb H37Rv: M. tuberculosis H37Rv growth inhibitors, H37Rv strain (AID 1626); inhibition, % at 10 µM; hits with a dose series show IC50 in µM; 0.95% of 220,000 active; M. tuberculosis H37Rv growth inhibition; higher % means a stronger effect;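 active = confirmed in a dose series; inconclusive = inhibition above 80% but not taken into the dose series; inactive = below 80% or under 30% at every dose of the series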;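 also: bacteria incubated seven days before Alamar blue readout; 0% = bacteria only wells and 100% = bacteria with antibiotic wells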
YopH PTP inh: YopH tyrosine phosphatase inhibitors, primary screen, biochemical, fluorescence Ex485/Em525; YopH tyrosine phosphatase [Yersinia enterocolitica]; inhibition, %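 (about 10 µM by stock and volumes)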; 0.16% of 140,000 active; AID 898, 2007;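 active = inhibition of 50% or more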;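 also: controls were vehicle for no effect and minimum signal wells for full effect; inactives centre near -20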
Arbovirus inh: antivirals against arbovirus infection, primary screen, cell-based, full library, 10K replicate subset; arbovirus infection cell-based antiviral screen; inhibition, % at 10 µM; 0.37% of 200,000 active; AID 1251, 2008;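 active = inhibition from about 30%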;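 also: bluetongue infection of BSR cells; cell survival read as ATP light after 72 h; 0% = infected wells without compound and 100% = uninfected wells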
Mtb betalactam: beta-lactam sensitization of Mtb H37Rv, H37Rv | M. tuberculosis H37Rv growth with meropenem, percent inhibition; hits of this screen are not shown here | inhibition, % at 25 µM | 0.27% of 330,000 active | AID 434955, 2010;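 active = about 74% or more and at least 40 points above the plate without the antibiotic, then above 30% in a dose series; inconclusive = first-round hits that could not be retested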;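 also: growth measured after seven days incubation then overnight dye step; 0% = bacteria only wells and 100% = bacteria with antibiotic; twin plates without the antibiotic show which effects depend on it; some results filed as inactive read as strong as hits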
RecA splice inh: Mtb RecA intein splicing inhibitors, primary screen, biochemical, fluorescence, HTS; 0.75% of 290,000 active; cell-free RecA intein splicing; inhibition, %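 (about 9 µM by stock and volumes)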; Protein RecA (Mycobacterium tuberculosis (strain ATCC 25618 / H37Rv)), P9WHJ3; in the data active = inhibition above about 30%; inconclusive = no clear call, values can overlap the other calls;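 also: 0% = vehicle wells and 100% = reference inhibitor control wells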
Target sequence (P9WHJ3 whole entry, looked up, canonical isoform): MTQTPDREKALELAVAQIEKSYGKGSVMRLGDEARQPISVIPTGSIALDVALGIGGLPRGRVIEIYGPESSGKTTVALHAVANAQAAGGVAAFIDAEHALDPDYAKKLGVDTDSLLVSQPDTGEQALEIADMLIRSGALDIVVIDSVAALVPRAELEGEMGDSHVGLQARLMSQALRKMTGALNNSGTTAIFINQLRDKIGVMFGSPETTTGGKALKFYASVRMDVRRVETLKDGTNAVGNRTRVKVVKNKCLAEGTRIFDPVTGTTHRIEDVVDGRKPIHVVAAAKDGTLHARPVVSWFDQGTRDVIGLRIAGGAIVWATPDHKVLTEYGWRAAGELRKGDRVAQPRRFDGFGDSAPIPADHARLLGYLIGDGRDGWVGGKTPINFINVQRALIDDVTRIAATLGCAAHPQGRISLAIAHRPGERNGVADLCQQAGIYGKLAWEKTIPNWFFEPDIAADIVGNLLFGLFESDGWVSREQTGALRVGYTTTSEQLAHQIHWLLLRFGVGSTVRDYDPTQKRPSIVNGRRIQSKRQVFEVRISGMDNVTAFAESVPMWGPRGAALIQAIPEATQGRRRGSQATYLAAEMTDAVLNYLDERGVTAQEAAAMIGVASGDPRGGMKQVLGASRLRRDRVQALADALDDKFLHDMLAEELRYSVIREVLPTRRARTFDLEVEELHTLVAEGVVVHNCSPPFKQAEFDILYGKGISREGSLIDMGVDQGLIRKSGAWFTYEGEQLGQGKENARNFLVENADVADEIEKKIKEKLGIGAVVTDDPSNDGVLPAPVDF
Arbovirus inh repeat: second read-out of Arbovirus inh, no call of its own (marks repeat the call); inhibition, %; measured here: 10K subset replicate screen; many hits read low in the repeat;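 first of two repeat runs on a subset; 0% = infected and 100% = uninfected wells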
* = called active by the depositor; ? = inconclusive; nt = not tested or not shown. An excerpt; the hit share may differ from the screen's.

SMILES | Mtb H37Rv | YopH PTP inh | Arbovirus inh | Mtb betalactam | RecA splice inh | others
Cc1cc2c(=O)n(CC(=O)NCC(=O)N3CCN(Cc4ccccc4)CC3)cnc2s1 | -8% | -44 | 22 | 0 | -1.3
CCn1c(C(=O)OC)cc2c1ccn2-c1ccc(F)cc1 | 9% | 14 | 11 | 65 | 14
CC1CCCC(C)N1C(=O)COC(=O)CNC(=O)c1sc2ccccc2c1Cl (configuration not stated) | nt | nt | nt | -1 | 0.1
COc1ccccc1/C=C/C(=O)c1ccc(NC(C)=O)cc1 | 94% | -2 | 10 | 68 | 3.4
COc1ccc(C(=O)NNC(=O)CSc2nnc(COc3ccccc3)n2C)cc1 | -16% | -15 | -2 | 2 | 0.9
CCc1cc2c(SCC(=O)c3cccs3)ncnc2s1 | -19% | 0 | -1 | -6 | 5.8
CC(=O)N1CCCC(C(=O)c2ccc3c4c(cccc24)CC3)C1 (configuration not stated) | -5% | nt | -3 | -4 | 3.8
COc1ccc(NC(=O)c2sc3nc(C)nc(N4CCN(c5ccccn5)CC4)c3c2C)c(OC)c1 | nt | nt | nt | 8 | 2.2
CCOC(=O)C1CCN(C(=O)Nc2ccc(OC)c(OC)c2)CC1 | -2% | -43 | 3 | -5 | -1.7
NC(=O)CC(NC(=O)c1ccccc1)c1ccc(NCCc2cccc(F)c2)c([N+](=O)[O-])c1 (configuration not stated) | -3% | nt | nt | -4 | 1.4
CC(=O)N(CCC1(C(C)C)CCOC(C)(C)C1)C(C)c1cccs1 (configuration not stated) | -5% | nt | nt | -19 | 2.5
O=C(CCNC(=O)c1ccccc1Cl)NCCc1ccc(C(F)(F)F)cc1 | nt | nt | nt | -1 | 0.7
COc1ccc(NC(=O)NNC(=O)c2cc(C3CC3)nc3ccccc23)c(OC)c1 | nt | nt | nt | -6 | 1.5
CCOc1ccc(N(Cc2ccc(OC)cc2)C(=O)c2ccco2)cc1 | 1% | nt | -10 | 10 | 7.1
N#C/C(=C\c1cccc([N+](=O)[O-])c1)C(=O)NCc1cccnc1 | 6% | -15 | -6 | 3 | 4.1
CN(CC#CCC(c1ccccc1)c1ccccc1)C(C)(C)C | 7% | -16 | 3 | -13 | 4.3
COc1ccc(-c2cc(C(F)(F)F)nc(SCC(=O)N3CC(C)OC(C)C3)n2)cc1OC (configuration not stated) | -5% | -25 | -1 | nt | -3.5
CC(C)Cn1c(CN2CCN(C(=O)c3ccco3)CC2)nc2c1c(=O)n(C)c(=O)n2C | 1% | nt | 11 | -8 | -2.9
COCCNC(=O)c1c(CSc2ccc(Cl)cc2)noc1C(=O)NCc1ccccc1 | -4% | nt | nt | 4 | -3.1
C(#CCN1CCOCC1)COC/C=C/c1ccccc1 | 2% | 14 | -3 | -18 | 0.4
CCOC(=O)C1=C(C)NC(=O)C1(NC(=O)c1cccnc1)C(F)(F)F (configuration not stated) | 5% | -22 | 7 | -5 | 0.7
COc1ccc(OCC(=O)NNC(=O)c2nn(C)c(=O)c3ccccc23)cc1 | -3% | -28 | -4 | 1 | 1.6
CCc1ccc(NC(=O)C2CCN(S(=O)(=O)c3cnc[nH]3)CC2)cc1 | nt | nt | nt | 3 | -0.7
Cc1cc(C)cc(N(C(C)C(=O)N2CCCC2)S(C)(=O)=O)c1 (configuration not stated) | nt | nt | nt | -2 | -1.3
Cc1cc(C(=O)OCC(=O)NCc2cccs2)c2ccccc2n1 | -6% | nt | 0 | 6 | -0.2

Quoted at random: 2 records from the list
SMILES | Mtb H37Rv | YopH PTP inh | Arbovirus inh | Mtb betalactam | RecA splice inh | others
Cc1cc2c(=O)n(CC(=O)NCC(=O)N3CCN(Cc4ccccc4)CC3)cnc2s1 | -8% | -44 | 22 | 0 | -1.3
COc1ccccc1/C=C/C(=O)c1ccc(NC(C)=O)cc1 | 94% | -2 | 10 | 68 | 3.4

Continued:
SMILES | Mtb H37Rv | YopH PTP inh | Arbovirus inh | Mtb betalactam | RecA splice inh | others
Cc1ccsc1C(=O)NNC(=O)c1ccc(NS(=O)(=O)c2cccs2)cc1 | nt | nt | nt | 44 | -1.1
CCC(C)C(NC(=O)C(C)NC(=O)CNC(=O)CNC(=O)OCc1ccccc1)C(=O)OC (configuration not stated) | -6% | -5 | 15 | -8 | -0.7
CCOC(=O)C1CCN(C(=O)Cn2nc(C)n3c(cc4cc(C)ccc43)c2=O)CC1 | nt | nt | nt | 0 | -2.0
O=C(COc1ccc(-n2cnnn2)cc1)Nc1ccccc1Cl | nt | nt | nt | 1 | 1.0
CCOc1ccc(N2C(=O)CC(NCC3CCCO3)C2=O)cc1 (configuration not stated) | -10% | nt | 6 | 4 | -0.6
CCCN(Cc1ccccc1)S(=O)(=O)c1ccc(N2C(=O)CCC2=O)cc1 | -11% | -13 | 3 | -9 | -1.8
CCOc1ccc(CC(C(N)=O)C(N)=O)cc1 | 5% | nt | 11 | 3 | 1.6
CCC1(CC)NC(=O)N(CC(=O)OCC(=O)Nc2sccc2C#N)C1=O | -3% | nt | 0 | 6 | 0.3
CC(C)Cn1cc(C(=O)NCC2CCCO2)c2c3ccccc3n(C)c2c1=O (configuration not stated) | -5% | -16 | 6 | -12 | 14
Clc1ccc2c(N3CCOCC3)ccnc2c1 | nt | nt | nt | 2 | -2.2
CN(CCC#N)C(=O)COC(=O)c1ccc2[nH]c3c(c2c1)CCCC3 | 3% | nt | 4 | -3 | -2.7
CC(=O)Nc1ccc(C2=NNC(=NCC3CCCO3)SC2)cc1 (configuration not stated) | 76% | 8 | 2 | -5 | nt
Cc1cnc(C(=O)NCc2ccc(Cl)cc2Cl)cn1 | -3% | nt | 2 | -6 | -2.6
O=C(NCc1ccco1)c1sc2cc(F)ccc2c1Cl | 7% | -10 | -8 | -8 | 3.4
Cc1ccc(S(=O)(=O)N(CC(=O)NCc2ccco2)c2ccccc2C)cc1 | nt | nt | nt | -3 | 4.5
O=C(c1cc(-c2cccc(Cl)c2)nc2ccccc12)N1CCCC1 | nt | nt | nt | 5 | 7.3
Cc1cc(C)n(-c2ccc(Cl)c(Cl)c2)n1 | -12% | nt | 2 | 6 | 1.1
COc1ccc(CCN2C(=O)C(O)=C(C(=O)c3ccco3)C2c2cccs2)cc1OC (configuration not stated) | -13% | -31 | 2 | -15 | 0.3
O=C(Nc1ccnn1C1CCN(Cc2ccc(CO)o2)CC1)c1ccccc1Cl | nt | nt | nt | -10 | -1.6
Cc1ccc(S(=O)(=O)NCC2CCCO2)cc1[N+](=O)[O-] (configuration not stated) | 6% | -57 | -1 | -3 | -1.6
O=C(CN1CCC(c2nc3ccccc3[nH]2)CC1)NCc1ccc2c(c1)OCO2 | -8% | -15 | -4 | -4 | 4.0
CN(c1ccccc1)S(=O)(=O)c1nnc(NC(=O)COc2ccccc2F)s1 | nt | nt | nt | -3 | -1.1
Cn1c(N)c(C(=O)COC(=O)CCC(=O)c2cccs2)c(=O)n(C)c1=O | -16% | -27 | 8 | 3 | nt
CC(C)OC(=O)/C(C#N)=C\c1cccnc1 | -5% | nt | 5 | 0 | -2.1
N#C/C(=C\c1ccccc1C(=O)O)c1nc2ccccc2[nH]1 | nt | nt | nt | 7 | -4.5

Next structures follow.
SMILES | Mtb H37Rv | YopH PTP inh | Arbovirus inh | Mtb betalactam | RecA splice inh | others
Cc1cc(C)cc(NS(=O)(=O)c2ccc3[nH]c(=O)ccc3c2)c1 | nt | nt | nt | 8 | -4.1
COCc1nc2ccccc2n1Cc1ccccc1 | -1% | -5 | 11 | -2 | -1.9
NNc1nc(-c2ccccc2)c2ccccc2n1 | 4% | nt | -17 | 0 | -1.8
Cc1ccccc1C=Nc1ccccc1C(N)=O | 1% | -18 | -17 | -3 | -6.4
Cc1c(C(=O)Oc2ccc(F)cc2)sc2ncn(Cc3cccc(F)c3)c(=O)c12 | ? | -40 | 0 | 95 | 1.2
Cc1cc(C)cc(NC(=O)Nc2ccc(NC(=O)c3ccccc3O)cc2)c1 | nt | nt | nt | 3 | -5.6
CCOC(=O)CNC(=S)N(Cc1cccs1)C1CCCCC1 | 8% | -11 | 5 | -1 | 2.0
Cc1c(/C=N/NC(=O)c2ccc(O)cc2)c2ccccn2c1C(=O)c1ccc(F)cc1 | 13% | -38 | -3 | 8 | -8.4
O=C(Cn1nc(-c2cccc(Cl)c2)ccc1=O)Nc1ccc(C(=O)NC2CC2)cc1 | -4% | nt | 7 | 12 | -2.1
COc1cccc(/C=C/C(=O)OCC(=O)Nc2ccc(Cl)c(S(=O)(=O)N(C)C)c2)c1 | 7% | nt | 1 | 20 | -1.1
O=C(COC(=O)c1ccccc1Oc1ccccc1)NCc1ccco1 | -6% | -25 | 4 | -5 | 8.0 | Arbovirus inh repeat=0
Cc1ccc(NC(=O)COC(=O)CSCC(=O)Nc2cc(C)on2)c(C)c1 | nt | nt | nt | 7 | -1.0
O=C(O)CCC(=O)Nc1nc2ccccc2s1 | -5% | -16 | 0 | -12 | 0.0
O=C(NCc1ccccn1)c1ccc(/C=N/O)nc1 | -7% | -13 | 1 | 4 | -0.4
Cn1nnc(NC(=O)/C=C/c2ccco2)n1 | -9% | nt | nt | 6 | -0.8
OCCN(/C=N/c1nc(-c2ccc(Br)cc2)cs1)CCO | 31µM* | -3 | 4 | 98 | -3.6
O=C1CC(SC(=Nc2ccccc2)Nc2ccccc2)C(=O)N1c1ccc(Cl)c(Cl)c1 (configuration not stated) | ? | -7 | 10 | ? | 0.6
Cc1ccccc1NC(=O)c1cccc(Cn2cc(Br)c([N+](=O)[O-])n2)c1 | 0% | -21 | -4 | -3 | 1.1
COc1ccc(NC(=O)c2cncc(Br)c2)cc1S(N)(=O)=O | -4% | nt | 4 | -3 | -0.2
CCSc1ccc(NC(=O)c2cccnc2)cc1 | 2% | -12 | 0 | 35 | nt
CNC(=O)N(O)C1N(/N=C/c2cc(Br)ccc2O)C(=S)SC1(C)C (configuration not stated) | nt | nt | nt | 3 | -1.8
CC1Oc2ccccc2OC1(O)c1ccccn1 (configuration not stated) | 3% | 15 | 3 | 0 | -4.0
COc1cc(CNCc2ccc(Br)cc2)cc(OC)c1 | nt | nt | nt | -2 | -1.1
CCOc1ccccc1Oc1c(C)oc2c(CN3CCN(CCO)CC3)c(O)ccc2c1=O | 7% | -42 | 4 | -3 | 0.0
Cc1ccc(C2CC(c3ccc(NS(C)(=O)=O)cc3)=NN2C(=O)c2ccco2)cc1 (configuration not stated) | 12% | -12 | -13 | 6 | 5.1

Remaining list, next part
SMILES | Mtb H37Rv | YopH PTP inh | Arbovirus inh | Mtb betalactam | RecA splice inh | others
COc1ccc(C(=O)N(C)Cc2ccc(C)o2)cc1OC1CCN(C(C)C)CC1 | nt | nt | nt | -21 | 6.1
CCCCCN(C(=O)CCC(=O)OCC(=O)N(C)Cc1ccc(C)cc1)c1c(N)n(CCCC)c(=O)[nH]c1=O | nt | nt | nt | -7 | -0.3
COC(=O)CN1C(=O)[C@H]2[C@@H](/C=C/c3ccccc3)N3C(=O)CN(CCO)C(=O)[C@@]3(Cc3ccccc3)[C@H]2C1=O | nt | nt | nt | -7 | -0.1
CC(OC(=O)CNC(=O)c1cccs1)C(=O)Nc1ccc(S(N)(=O)=O)cc1 (configuration not stated) | nt | nt | nt | -8 | 0.9
Cn1c(=O)[nH]c(=O)c2c1nc(CN(Cc1ccccc1)Cc1ccccc1)n2CCN1CCOCC1 | 0% | -38 | -2 | -2 | -4.5
O=C(CNC(=O)c1ccc2c(c1)OCCO2)N=Nc1c(O)[nH]c2ccccc12 | nt | nt | nt | -5 | -0.9
O=C(NN1C(=O)c2ccccc2NC1c1ccccn1)c1ccc([N+](=O)[O-])cc1 (configuration not stated) | 8% | 7 | 10 | -7 | -1.8
COc1ccccc1NS(=O)(=O)c1cccc(C(=O)NNC(=O)C(NC(N)=O)C(C)C)c1 (configuration not stated) | -2% | nt | nt | -5 | -2.4
CCOC(=O)c1c(C)n(-c2ccc(C)cc2)c2c(CC(C)=O)c(Br)c(OC)c(O)c12 | -10% | -23 | 2 | -6 | -1.5
O=C(CSc1nnc(-c2cccs2)o1)NCc1ccco1 | 8% | nt | 7 | -3 | -6.5
Cc1[nH]nc(N2CCCCCC2)c1[N+](=O)[O-] | -4% | -21 | -4 | 3 | 1.8
Cc1sc2ncnc(OCc3nnc(-c4cccs4)o3)c2c1C | 5% | nt | 1 | 2 | 0.5
CCn1c(Cn2nnc(-c3ccccc3)n2)nnc1SCC(=O)Nc1ccc(N(C)C)cc1 | -4% | -5 | -4 | -2 | -1.2
